gsp agonist: qHTS for Agonist of gsp, the Etiologic Mutation Responsible for Fibrous Dysplasia/McCune-Albright Syndrome: qHTS; Potency, µM (doses to about 76.9 µM), for inactives: at the highest dose activation (cAMP increase), usual class: activators; hit rate 0.13% among 340,000; gsp mutant cells, cAMP HTRF, 30 min; control for the full effect not named in the record; AID 624287, 2012; active = well fitted activation curve with a large enough effect; inconclusive = small, poorly fitted or top-dose-only effect, or another doubt; inactive = no such curve, though single readings can be large or run the other way; cell line not stated here;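 also: phosphodiesterase inhibitor Ro 20-1724 added with compounds to block cAMP breakdown; potency is read from the fitted curve at half-maximal effect; nearly all actives have a fitted effect of over 60% in size; about a fifth of the inactives were tested at one dose only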
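Cells in DMEM/10% FBS with G418 were pretreated with compounds in DMSO plus […] (300 uM stock) for 30 min at 37C. cAMP was measured by HTRF (cAMP-d2 plus anti-cAMP antibody-K) after 30 min at room temperature.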
Menin-MLL FL inh: qHTS Assay for Inhibitors Targeting the Menin-MLL Interaction in MLL Related Leukemias: Competition With Fluorescein Labeled MLL-derived Peptide; FP activity change, % at 61.4 µM; Fluorescence polarization, fluorescein-MLL peptide displacement from menin; 290,000 tested, under 10 active; inconclusive = falling polarisation curve, or a change in total fluorescence; inactive = total fluorescence flat and polarisation flat or rising; no compound was filed as active; the % refers to the polarisation; negative = inhibition;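 also: % of control where 0% means no effect; inhibitors lower the polarisation; unlabelled MLL peptide was the positive control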
Sfp inh: qHTS Assay for Inhibitors of Bacillus subtilis Sfp phosphopantetheinyl transferase (PPTase); Biochemical Sfp PPTase activity, qHTS; 4'-phosphopantetheinyl transferase ffp (Bacillus subtilis), Q9F4F7; Potency, µM, without a hit: max response, negative = inhibition, actives largely listed as inhibitors; AID 1490, 2009; hit rate 3.5% among 310,000; active = well fitted inhibition curve with a large enough effect; inconclusive = small, poorly fitted or top-dose-only effect, or another doubt; inactive = no such curve, though single readings can be large or run the other way;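 also: the enzyme is Sfp with the accession as filed and its product quenches rhodamine fluorescence; potency is read from the fitted curve at half-maximal effect; 0% = enzyme reaction without inhibitor and -100% = no enzyme wells; top concentration of the series not given in the record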
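Reaction rates are the 30-min fluorescence difference (ex 525, em 598 nm) in wells containing 15 nM Sfp, 5 uM rhodamine-CoA and 12.5 uM BHQ-2-YbbR at pH 7.6 with 10 mM MgCl2.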
ClpP mod: qHTS Assay for Activators of ClpP | ATP-dependent Clp protease proteolytic subunit (Bacillus subtilis (strain 168)), P80244 | purified B. subtilis ClpP, FRET peptide cleavage, 20 min | Potency, µM (doses to about 57.5 µM), for inactives: at the top dose activity change, negative = active | hit rate 1.9% among 340,000 | AID 651965, 2013; active = well fitted falling curve with a large enough effect; inconclusive = small, poorly fitted or top-dose-only effect; inactive = no such curve, though single readings can be large or run the other way; also: potency is read from the fitted curve at half-maximal effect; the source files actives as falling curves though it sought activators and does not explain the sign; nearly all actives have a fitted effect of over 65% in size; many hits overshoot -100%
Target sequence (P80244 whole entry, looked up): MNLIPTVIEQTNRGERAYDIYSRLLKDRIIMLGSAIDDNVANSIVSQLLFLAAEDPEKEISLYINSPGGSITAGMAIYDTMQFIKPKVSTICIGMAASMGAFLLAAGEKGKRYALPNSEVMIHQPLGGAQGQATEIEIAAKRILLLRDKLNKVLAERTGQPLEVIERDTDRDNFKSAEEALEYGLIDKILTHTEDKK
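Purified B. subtilis ClpP, 10 microg/mL final in Tris/HCl pH8 with KCl, BSA, glycerol and Tween-20, cleaved an Abz/nitrotyrosine-quenched decapeptide. Fluorescence (ex 320, em 430) was read at 0 and 20 min at room temperature. Delta was normalized to 5.8 microM ADEP and DMSO/no-enzyme controls.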
TRPV1 potentiator: HTS Assay for Compounds that Act as Potentiators of the Vanilloid Receptor 1. potentiation, % at 8.33 µM. TRPV1-expressing cells, Fluo-8 calcium influx, capsaicin EC20 potentiation; host cell line not named in the record; control for the full effect not named in the record. Transient receptor potential cation channel subfamily V member 1 (Homo sapiens), Q8NER1. hit rate 0.02% among 320,000; active means potentiation above 80%; inconclusive means 30% to 80%; inactive means below 30%; also: 0% is about no effect
Target sequence (Q8NER1 whole entry, looked up): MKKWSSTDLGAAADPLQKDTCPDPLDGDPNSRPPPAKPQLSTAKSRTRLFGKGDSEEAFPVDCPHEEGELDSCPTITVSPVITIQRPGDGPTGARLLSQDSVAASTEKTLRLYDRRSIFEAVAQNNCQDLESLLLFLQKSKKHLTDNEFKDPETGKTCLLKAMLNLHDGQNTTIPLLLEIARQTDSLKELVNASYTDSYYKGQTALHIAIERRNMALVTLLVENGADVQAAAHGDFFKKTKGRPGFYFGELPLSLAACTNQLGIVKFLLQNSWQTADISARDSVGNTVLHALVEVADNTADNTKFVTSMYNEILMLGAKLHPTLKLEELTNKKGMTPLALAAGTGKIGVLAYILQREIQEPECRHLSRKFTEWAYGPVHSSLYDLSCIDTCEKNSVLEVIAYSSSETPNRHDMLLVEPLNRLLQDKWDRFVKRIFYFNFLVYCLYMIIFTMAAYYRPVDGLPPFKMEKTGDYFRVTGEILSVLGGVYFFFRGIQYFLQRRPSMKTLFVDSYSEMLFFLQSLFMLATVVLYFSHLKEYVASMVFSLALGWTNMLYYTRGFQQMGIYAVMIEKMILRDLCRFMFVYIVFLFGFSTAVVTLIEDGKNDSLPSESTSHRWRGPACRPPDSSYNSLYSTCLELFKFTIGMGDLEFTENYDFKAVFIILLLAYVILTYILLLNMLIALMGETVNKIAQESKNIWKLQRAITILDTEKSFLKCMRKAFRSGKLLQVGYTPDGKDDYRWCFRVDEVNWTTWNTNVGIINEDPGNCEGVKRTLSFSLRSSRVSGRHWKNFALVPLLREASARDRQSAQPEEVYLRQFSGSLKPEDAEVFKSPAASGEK
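Fluo-8 calcium influx in TRPV1-expressing cells, kinetic read (ex 480/em 520 nm). Compound added and read 3 min for agonist activity, followed by capsaicin at EC20 final and 2 min further read for enhancement.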
TRPML1 inh: qHTS for Inhibitors of the Human Mucolipin Transient Receptor Potential 1 (TRPML1); Mucolipin-1 (Homo sapiens), Q9GZU1; TRPML1-inducible cells, Ca2+ dye fluorescence, FDSS; active compounds read low; inhibition of EC80 agonist-evoked calcium signal; activity change, negative = inhibition, % (test concentration not listed); hit rate 0.02% among 390,000; in the data active means activity change below about -50%; inconclusive means about -30% to -50%; inactive means above about -30%;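 also: stimulus is agonist 54-4 at its EC80 concentration; % is scaled to controls: 0 for no effect and ±100 for the full control effect; compound concentration not given in the record; the text of the record puts the active cut at -80%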
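Calcium fluorescence in TRPML1-DL cells induced overnight with Tet: a 110 s read after compound pin addition, then a 110 s antagonist read after challenge with 54-4 at 4 uM final (EC80).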
gsp antagonist: qHTS for Antagonists of gsp, the Etiologic Mutation Responsible for Fibrous Dysplasia/McCune-Albright Syndrome: qHTS | AID 624288, 2012 | hit rate 0.4% among 340,000 | gsp-mutant cells, cAMP HTRF, 30 min; control for the full effect not named in the record | Potency, µM (series often up to 76.9 µM), for the others: at the highest dose activity change, negative = inhibition, hits mostly inhibitors; active = falling curve of any shape with a large fitted effect; inconclusive = falling curve, mostly with a smaller effect; inactive = flat or rising curve; cell line not stated here;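 also: intracellular cAMP measured with PDE inhibitor Ro 20-1724 present during compound exposure; potency is read from the fitted curve at half-maximal effect; % is scaled to controls: 0 for no effect and ±100 for the full control effect; nearly all actives have a fitted effect of over 65% in size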
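HTRF cAMP read-out (cAMP-d2 plus anti-cAMP antibody-K in lysis buffer, 30 min RT). Before lysis, cells are exposed to compounds with […] for 30 min at 37C in DPBS containing Ca/Mg, BSA and Tween 20.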
Starred values were filed as active, the others as inactive; ? = inconclusive; . = no result given; [ ] = remark or other dose.

SMILES	gsp agonist	Menin-MLL FL inh	Sfp inh	ClpP mod	TRPV1 potentiator	TRPML1 inh	gsp antagonist
O=c1ccc(/C=C/c2ccccc2)nn1Cc1ccc(F)cc1	-1%[15.4 µM]	-0.2	-5%	.	-11	31	-6%
COc1ccc(NC(=O)CSc2ncn(-c3ccccc3)n2)cc1Cl	6%	1.9	9%	1.5%	-5	-2	4%
COc1ccc(Cl)cc1NC(=S)N(CCN1CCOCC1)C1CCN(C(C)=O)CC1	14%	0.2	16%	.	1	6	5%
COc1ccccc1CNS(=O)(=O)c1ccc(-c2cc(C)no2)cc1	-4%	.	8%	0.2%	25	84	6%
CC(C)NC(=O)C1CCN(C2CCN(C(=O)c3scc4c3CCCC4)CC2)CC1	-2%	11	3%	1.6%	-2	-3	14%
CSc1ccc(/C=C(/NC(=O)c2ccco2)C(=O)NCc2ccco2)cc1	-8%	.	16%	-10%	6	-9	9%
c1ccc(CNn2nnnc2-c2ccccc2)cc1	-5%	0.5	-10%	-1.1%	13	-16	4%
COc1cccc(NC(=O)CN(C)C(=O)c2cccnc2Nc2cccc(C(F)(F)F)c2)c1	11%	.	.	-1.0%	-10	-14	?
COc1ccc(C)cc1S(=O)(=O)N1CCN(C(=O)c2ncoc2-c2cccc(C)c2)CC1	28%[15.4 µM]	2.9	3%	.	5	-14	?
CCOC(=O)Nc1nnc(-c2ccccc2OC)s1	18%	-0.1	-2%	3.5µM*	-19	18	0%[15.4 µM]
COc1ccccc1C(CNC(=O)c1ccc(S(=O)(=O)N2CCCCC2)cc1)N(C)C (centres undefined)	-6%	.	.	-1.2%	6	-7	4%
CNC(=O)NC(=O)CSc1nc2ccccc2n1CCOC	2%	0.7	17%	-3.0%	9	-9	3%
O=C(CSCc1ccccc1)Nc1nccs1	-28%	17	1%	0.0%	-17	5	9%
COC(=O)C(Cc1ccccc1)NC(=O)CC(C)CC(=O)Nc1ccc(C)cc1 (centres undefined)	-31%[inhibitor]	5.9	10%	0.0%	12	1	-2%
COCCn1c(SCC(=O)Nc2ccccc2OC)nnc1-c1ccco1	36%[15.4 µM]	.	3%	.	-1	16	8%
O=C(OCCN1CCCCC1)c1ccc(Cl)cc1	-13%	0.5	89µM*	0.6%	13	2	7%
COc1ccc(-c2nc(NC(C)=O)sc2-c2ccc(OC)cc2)cc1	11%[15.4 µM]	-3.8	9%	.	-9	7	?
CCOc1ccc(C(=O)NC2CCN(CC(=O)NCc3cccs3)CC2)cc1	2%[15.4 µM]	-1.1	15%	.	5	-21	-7%
COc1ccccc1N(CC(=O)N/N=C(\C)c1ccc(F)cc1)S(=O)(=O)c1ccccc1	-90%[inhibitor]	.	.	1.5%	2	0	-7%
O=C(O)CCC(=O)Nc1cccc(C(=O)c2ccccc2)c1	-23%	1.7	21%	-1.9%	-3	5	3%
COC(=O)Nc1c(-c2ccccc2)nc2ccccn12	4%	0.6	25%	7.9µM*	-1	-18	10%
Clc1ccc(N=NN2CCOCC2)cc1	18%[15.4 µM]	2.9	14%	.	-1	28	12%
CCOC(=O)c1c(NC(=O)COC)sc2c1CCCC2	-4%	7.8	7%	-6.9%	-38	5	-18%
CN(C(=O)c1cccc(NC(=O)Cc2cccc(NC(=O)C3CCCN(C(=O)C4CCC4)C3)c2)c1)C1CCC1 (centres undefined)	.	.	.	-0.5%	.	21	-15%
CCOC(=O)CNC(=O)N1CCCC(CNS(=O)(=O)Cc2ccccc2)C1 (centres undefined)	-93%[inhibitor]	-1.2	14%	-0.7%	18	9	-2%
CC(C)COc1ccc(CNC(=S)N/N=C/c2ccc([N+](=O)[O-])cc2)cc1	-7%	-0.8	-4%	-0.8%	-2	-16	1%
CC1CCCC(NC(=O)CN(C)CC(=O)Nc2cccc(F)c2)C1C (centres undefined)	6%	.	.	2.6%	-13	-11	6%
CCOc1ccc(-c2nc(CSc3nnc(N)s3)cs2)cc1OC	-17%	8.5	-4%	?	-16	-1	-5%
CCN(C[C@H]1N[C@@](CC)(C(=O)OC)[C@H]2C(=O)N(Cc3ccccc3)C(=O)[C@@H]12)S(=O)(=O)c1ccc(F)cc1	.	.	.	2.0%	.	-5	-6%
O=C(Nc1ccccn1)C1CCN(C(=O)c2ccc(F)cc2)CC1	-2%[15.4 µM]	.	.	-19%	-8	12	3%
COc1ccc(S(=O)(=O)N(C)CC(=O)NCCN2CCOCC2)cc1	14%	0.1	18%	.	3	14	8%
COC(=O)c1ccccc1NC(=O)C1COc2ccccc2O1 (centres undefined)	3%	2.4	22%	-3.4%	0	1	5%
CCOC(=O)c1cccc(NC(=O)CCNS(=O)(=O)c2cc(Br)cnc2N)c1	-31%[inhibitor]	1.8	20%	-9.9%	0	14	-13%
COc1ccc(C(=O)N2N=C(c3ccccc3)CC2(O)C(F)(F)F)cc1 (centres undefined)	?	1.6	-22%	0.6%	4	4	-11%
CCOC(=O)CSc1nc2c(sc(=S)n2Cc2ccco2)c(=O)n1-c1ccccc1	10%	5.7	-6%	-1.5%	-3	19	-5%
C=CC[C@@H](CC(=O)N(CCO)Cc1ccccc1)C(=O)N[C@H](C)COC(=O)[C@@H](CC=C)Cc1ccc(F)cc1	.	.	.	-2.2%	.	14	?
COc1ccc(CCNC(=O)c2cc3sccc3n2C)cc1OC	23%	2.6	15%	2.2%	1	-5	-19%
COc1cccc(NC(=O)Cn2c(=O)n(C)c(=O)c3sc4c(c32)COC(C)(C)C4)c1	21%	.	7%	-2.8%	0	13	3%
c1ccc(C2=Nc3cccnc3C(c3ccccc3)=NN2)cc1	-44%[inhibitor]	1.3	13%	.	?	0	-12%
COCCNC(=O)C1CCN(S(=O)(=O)c2c(C)noc2/C=C/c2cccs2)CC1	5%	8.6	3%	-0.9%	-17	8	?
COCC(C)Nc1ncnc2c1cnn2-c1ccc(Cl)cc1 (centres undefined)	0%	0.5	12%	28µM*	-8	2	-9%
CC(C)(C)NC(=O)c1cc2c(ccc3ccccc32)oc1=O	0%[15.4 µM]	4.0	15%	1.3%	11	-7	4%
CCn1cc(Br)c(C(=O)NC(=S)Nc2ccc(C(=O)OC)cc2)n1	-3%[15.4 µM]	4.8	-2%	0.6%	9	-2	10%
COc1ccc(-c2c([C@H]3[C@H]4C=CC[C@@H](C)[C@@H]4C(=O)N3Cc3ccccc3)ccc3ccccc23)cc1OC	.	-0.8	-3%	?	11	-1	0%
Cc1cccc(OCCCCN2CCNCC2)c1	-11%	.	.	.	.	33	10%
O=c1ccc(OCCOc2ccccc2)nn1-c1ccccc1	?	3.3	8%	1.4%	-19	4	-3%
COc1ccc(C)cc1S(=O)(=O)N(C)CC(=O)NCc1ccccn1	8%[15.4 µM]	-3.1	9%	.	29	6	10%
O=[N+]([O-])c1ccc(CSc2nnc(SCc3ccc(Cl)cc3)s2)cc1	-1%	-0.5	16%	-7.2%	7	-7	-7%
Cc1ccccc1CSc1nnc(Cn2c(=O)sc3ccccc32)n1C	-10%	2.2	10%	-3.0%	-5	-4	3%
C[C@@H]1CC=C[C@@H]2[C@H]1C(=O)N(Cc1ccccc1)[C@H]2c1cccc(Br)c1	.	-0.7	-3%	0.8%	.	27	4%
O=C(Nc1ccc(N=Nc2ccccc2)c(NC(=O)C2CCCO2)c1)C1CCCO1 (centres undefined)	-9%[15.4 µM]	-1.1	-24%	-0.1%	-6	4	-21%
CCOc1cc(/C=C2/C(=O)ON=C2C)cc(Br)c1O	?	?	-28%	2.6%	13	-10	-1%
CO/C=C/C#CC1(O)CCN(C)CC1	-5%	-3.2	15%	-1.7%	-9	-8	2%
N#C/C(=C\c1ccccc1)c1n[nH]c(Cn2cncn2)n1	?	2.2	-1%	-11%	2	9	-5%
Cc1cc(C)c(OCC(=O)OCC(=O)NNC(=O)c2ccccc2F)c(C)c1	23%	.	.	-1.8%	-4	-9	-2%
Cc1ccc(CN2CC(C(=O)Nc3ncc(C)s3)CC2=O)cc1 (centres undefined)	-8%	.	.	-1.0%	2	-2	3%
C/C(CS(=O)(=O)c1ccccc1)=N\O	-1%[15.4 µM]	0.8	6%	.	3	0	4%
Cc1ccc(C(C(=O)NC(C)(C)C)N(Cc2ccc3c(c2)OCO3)C(=O)c2ccc(CN3CCOCC3)o2)o1 (centres undefined)	-18%[15.4 µM]	1.2	2%	.	-5	-3	-2%
Cc1nn(C)c(C)c1NS(=O)(=O)c1ccc(OC(F)(F)F)cc1	-12%[15.4 µM]	.	.	.	14	5	5%
CC(C)c1nnc(NC(=O)C2CC(=O)N(CCc3ccc(F)cc3)C2)s1 (centres undefined)	11%[15.4 µM]	-4.0	11%	.	-7	0	-9%
COc1ccc(OCC(=O)NCc2cccnc2)cc1	-34%[inhibitor]	-5.2	9%	-2.1%	-13	-6	9%
C/C(=N\N1CCN(C2c3ccccc3-c3ccccc32)CC1)c1cccnc1	-31%[inhibitor]	0.2	-12%	-2.4%	1	-6	-6%[15.4 µM]

2 compounds from above, limited to ClpP mod and gsp agonist.
canonical_smiles	ClpP mod	gsp agonist
COc1ccc(OCC(=O)NCc2cccnc2)cc1	-2.1%	-34%[inhibitor]
C/C(=N\N1CCN(C2c3ccccc3-c3ccccc32)CC1)c1cccnc1	-2.4%	-31%[inhibitor]

Screening data deposited in PubChem by National Center for Advancing Translational Sciences (NCATS).
